Assay outcomes as filed in PubChem BioAssay.
TSHR agonist: agonists of human thyroid stimulating hormone receptor. HEK293-CNG-TSHR cells (CNG channel as cAMP sensor), membrane potential dye, cAMP. P16473. Potency, µM (titrated, usually from 57.1 µM), inactives show top-dose activation, usual class: activators. hit rate 0.48% among 73,000. AID 926; active = well fitted activation curve of enough size with the parental cells flat; inconclusive = any curve in the parental cells; inactive = parental cells flat and receptor cells flat or falling; also: potency is read from the fitted curve at half-maximal effect; % of control where 0% means no effect; weak receptor curves with flat parental cells got no call and are not listed
Target sequence (P16473 whole entry, looked up): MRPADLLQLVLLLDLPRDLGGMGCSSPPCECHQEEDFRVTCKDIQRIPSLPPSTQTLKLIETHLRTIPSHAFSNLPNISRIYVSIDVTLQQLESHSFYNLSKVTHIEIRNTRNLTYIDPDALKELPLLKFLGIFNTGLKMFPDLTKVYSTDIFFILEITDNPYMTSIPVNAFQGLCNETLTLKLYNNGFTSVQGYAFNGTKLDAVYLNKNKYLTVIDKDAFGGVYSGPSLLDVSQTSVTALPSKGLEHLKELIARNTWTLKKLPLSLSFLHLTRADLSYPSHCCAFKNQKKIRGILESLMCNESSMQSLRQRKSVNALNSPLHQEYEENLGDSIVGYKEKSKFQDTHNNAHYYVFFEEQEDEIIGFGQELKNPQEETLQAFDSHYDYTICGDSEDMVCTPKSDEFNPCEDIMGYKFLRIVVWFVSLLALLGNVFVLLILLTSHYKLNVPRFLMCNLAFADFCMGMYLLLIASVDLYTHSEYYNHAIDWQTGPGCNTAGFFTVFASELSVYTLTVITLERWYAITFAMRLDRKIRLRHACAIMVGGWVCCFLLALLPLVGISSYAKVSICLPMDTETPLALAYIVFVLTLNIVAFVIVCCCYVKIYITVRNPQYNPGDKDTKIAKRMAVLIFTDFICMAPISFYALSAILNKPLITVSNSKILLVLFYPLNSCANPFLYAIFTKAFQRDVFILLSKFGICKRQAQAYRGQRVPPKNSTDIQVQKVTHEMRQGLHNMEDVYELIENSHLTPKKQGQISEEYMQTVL
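HEK 293 cells stably expressing TSHR and a cAMP-gated CNG channel; parental CNG-only cells as counterscreen. Cells preloaded 60 min with membrane potential dye plus 100 uM RO 20-1724, then compound 30 min; fluorescence read at 590 nm.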
A488 fluor: A488 region autofluorescence; max dye equivalency, M; hit rate 0.1% among 59,000; compound autofluorescence, A488 spectral region, dye equivalency; hits give high values; active = above 10 nM dye equivalent; inconclusive = 1 to 10 nM; inactive = 1 nM or less; about half of its hits are not listed in these tables;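 also: highest value over a series up to 38 µM; compound alone in buffer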
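Spectroscopic profiling in the A488 region: compounds in pH 8.0 Tris (100 mM), 15 min RT, CCD imaging with 480 nm excitation and 540 nm emission; responses normalized against A488 dye standards.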
A647 fluor: A647 region autofluorescence | Compound fluorescence, A647 channel (570/671 nm), Tris buffer | 59,000 tested, under 10 active | max dye-equivalent concentration, M; active means above 1 µM dye equivalent; inconclusive means 0.1 to 1 µM; inactive means 0.1 µM or less;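 also: values scaled relative to a standard on each plate; highest value over a series up to 38 µM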
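Compounds pinned into 100 mM Tris pH 8.0, 15 min at room temperature, then read with 570 nm excitation/671 nm emission filters. Fluorescence normalized to an on-plate six-point Alexa 647 standard curve, giving dye-equivalent concentration per compound concentration.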
AID923: qHTS Assay for Allosteric/Competitive Inhibitors of Caspase-1: Spectroscopic Profiling in AFC Spectral Region. compound fluorescence, AFC spectral region (405/520 nm); almost no hit is shown here. Potency, µM (titrated, usually from 57.5 µM), without a hit: at the top dose fluorescence increase, usual class: activators. hit rate 1.1% among 75,000; active = well fitted activation curve with a large enough effect; inconclusive = small, poorly fitted or top-dose-only effect;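 also: potency is read from the fitted curve at half-maximal effect; 0% is about no effect; scaled to a free AFC standard on each plate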
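Baseline compound fluorescence (AFC region, 405 nm ex/520 nm em) taken from the intercept of kinetic reads with 50 nM caspase-1 and 5 uM Ac-WEHD-AFC; normalized to an on-plate AFC standard curve; compounds titrated up to 57 uM.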
Resorufin autofl: compounds fluorescent in resorufin spectral region; Compound fluorescence, resorufin region 547/598 nm, buffer; hits give high values; max dye-equivalent concentration, M; hit rate 0.04% among 59,000; active = above 10 nM dye equivalent; inconclusive = 1 to 10 nM; inactive = 1 nM or less; a few of its hits are not listed in these tables; also: highest value over a series up to 38 µM
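Tris 100 mM pH 8.0; compound added, 15 min RT; CCD imager read, ex 547 nm/em 598 nm; signal normalized to resorufin standard curve (six concentrations per plate) as dye-equivalent concentration.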
* marks the source's active call; other numbers are inactive results; i = inactive; u = inconclusive; x = not tested or not shown; [ ] = remark or other dose.

| mol | A647 fluor | TSHR agonist | AID923 | Resorufin autofl | A488 fluor |
| --- | --- | --- | --- | --- | --- |
| O=C(c1ccco1)N1CCN(S(=O)(=O)c2ccc(Oc3ccccc3)cc2)CC1 | 3.4e-09 | u | -1.5% | i | i |
| O=C(NCCN1CCN(C(=O)Nc2ccccc2)CC1)Nc1ccccc1 | x | 0% | -3.2% | x | x |
| CC(C)NC(=O)C1CCCN(c2nnc(-n3cccc3)s2)C1 (stereo not drawn) | x | u | -2.1% | x | x |
| OCCN(Cc1ccccc1)Cc1ccc(F)c(F)c1 | x | 8%[11.4 µM] | -1.7% | x | x |
| c1csc(-c2csc3ncnc(NCCCN4CCOCC4)c23)c1 | 7.2e-09 | 8% | 3.5% | i | i |
| COc1ccc(-n2c(SCc3nnc(-c4ccccc4)o3)nnc2-c2ccccc2)cc1 | 4e-09 | u | -0.9% | i | i |
| Cc1cccc(N(C(=O)CCC(=O)Nc2cc(C)on2)C(C(=O)NC2CCCC2)c2ccncc2)c1 (stereo not drawn) | 1.9e-08 | 3% | 0.9% | i | i |
| COC(=O)CSc1nnc(CNc2ccc(F)cc2)o1 | 1e-09 | -9% | -2.5% | i | i |
| CS(=O)(=O)N1CCC2(CC1)CN(C(c1ccccc1)c1ccccc1)C2 | 2.5e-09 | 3% | 0.5% | i | i |
| O=C(NCc1cccs1)C1CCCN(S(=O)(=O)c2ccc3c(c2)OCO3)C1 (stereo not drawn) | 4.1e-09 | 1%[11.4 µM] | -1.1% | i | i |
| Cc1csc(NC(=O)CSc2nnc(C)s2)n1 | 1e-09 | x | 1.1% | i | i |
| COc1ccc(OC)c(NC(=O)C2C3CC4OC(=O)C2C4C3)c1 (stereo not drawn) | 1.2e-08 | -10% | -0.2% | i | i |
| CCOC(=O)CCN1C(=O)[C@H]2[C@@H]3[C@H](O)C=CC(=O)[C@H]3CC[C@H]2C1=O | x | -11%[11.4 µM] | 0.0%[11.5 µM] | x | x |
| CC(=O)Nc1c(C(=O)N2CCOCC2)sc2nc3c(cc12)COC(C)(C)C3 | 1e-09 | 0% | 0.7% | i | i |
| Cn1cnnc1SCC(=O)Nc1ccccc1 | x | -1% | -3.7% | x | x |
| CCN(CC)C(=O)CSc1nnc([C@@H](NC(=O)OC(C)(C)C)C(C)C)o1 | 9e-09 | 3% | -0.3% | i | i |
| Cc1cc(C)c2c(=O)[nH]n(C3CC(C)N(C)CC3C)c2n1 (stereo not drawn) | 1.8e-09 | 18% | -0.4% | i | i |
| COc1ccc(N2CCN(CCNC(=O)c3c(C)cc(=O)oc3C)CC2)cc1 | 1.6e-08 | x | -0.3% | i | i |
| Cc1ccc(CNC(=O)CCNC(=O)Cn2ccc3ccccc3c2=O)o1 | 3.8e-09 | 1% | -0.7% | i | i |
| OCC#CCSc1nnc(-c2ccc(Br)cc2)o1 | 2.4e-08 | 5% | -0.4% | i | i |
| Cn1c(=O)c2c(SCc3ccccc3)nc(-c3ccco3)nc2n(C)c1=O | x | 8% | -4.1% | x | x |
| O=C(Nc1ccc2ccccc2c1)c1cccnc1 | x | -11% | -2.0% | x | x |
| O=C(CSCc1ccccn1)Nc1ccccc1 | 1.7e-08 | -17% | -0.8% | i | i |
| CCOC(=O)CSc1nc2ccccc2n1CC(=O)N(C(C)C)C(C)C | 1e-09 | 14% | 0.4% | i | i |
| CSc1ccccc1NC(=O)c1cnc2scc(C)n2c1=O | x | 8% | 0.8% | x | x |
| CCOC(=O)c1ccc(NC(=O)C(C)N2C(=O)c3ccccc3C2=O)cc1 (stereo not drawn) | x | -2% | 2.5% | x | x |
| Cc1ccccc1N(CC(=O)NCC1CCCO1)C(=O)C1(C)CC(=O)N=C2C=CC=CN21 (stereo not drawn) | 4.8e-08 | 0% | -1.1% | i | i |
| CCN(CC)C(=O)CSc1ncnc2c1nnn2-c1ccc(OC)cc1 | x | 8% | 1.0% | x | x |
| CN(Cc1ccco1)c1ncnc2ccc(-c3ccoc3)cc12 | 2.1e-09 | u | 0.3% | i | i |
| COc1ccc(OC)c(N2C(=O)CC(C(C)c3ccccc3)C2=O)c1 (stereo not drawn) | x | 6% | -1.2% | x | x |
| Cc1noc(C)c1S(=O)(=O)N1CCCC(C(=O)N2CCN(C3CCCCC3)CC2)C1 (stereo not drawn) | x | 1% | -0.4% | x | x |
| CCOc1ccc(N(CC(=O)NC2CCCC2)C(=O)CCC(=O)Nc2ccccn2)cc1 | 4.7e-08 | -3% | -1.2% | i | i |
| O=C(NCc1ccccc1)c1cc(-c2ccco2)on1 | 7.5e-09 | 9% | 6.5% | i | i |
| CCOC(=O)OCC1OC(c2ccccc2)C=CC1Oc1ccc2oc(=O)cc(C)c2c1 (stereo not drawn) | x | -4%[11.4 µM] | 4.6%[11.5 µM] | x | x |
| CCOc1ccc(NC(=O)C2C3C=CC4(CN(C(C(=O)OC)C(C)C)C(=O)C24)O3)cc1 (stereo not drawn) | x | 2% | 3.2% | x | x |
| O=C1CN(S(=O)(=O)c2ccccc2)CC(=O)N1CCc1ccccc1 | 1e-09 | x | 0.0% | i | i |
| Cc1ccc(-c2noc(CCC(=O)N3CCCc4ccccc43)n2)cc1 | 1e-09 | u | 0.5% | i | i |
| Cc1cc(C(=O)CSc2nnc(-c3cccs3)n2Cc2ccccc2)c(C)n1C | 5e-08 | u | 0.5% | i | i |
| COc1cc(OC)cc(C(=O)NCCn2ccc3ccccc32)c1 | x | -3% | -3.3% | x | x |
| O=C(CN(CC1CCCO1)C(=O)CCC(=O)Nc1nccs1)NCC1CCCO1 (stereo not drawn) | 3.3e-09 | -4% | -0.7% | i | i |
| O=C(NC1(O)C(=O)c2ccccc2C1=O)c1ccccc1 | 1e-09 | -3%[11.4 µM] | 0.4% | i | i |
| COCCNc1nc(C)nc2c1nc(-c1ccccc1)n2CCN(C)C | x | 6% | 2.4% | x | x |
| Cc1ccc(C(c2sc3ncnn3c2O)N2CCCCC2)cc1 (stereo not drawn) | x | 0%[11.4 µM] | 0.7% | x | x |
| CS(=O)CSc1nc2c(cc1C#N)CCCC2 (stereo not drawn) | 1.7e-09 | 1% | 0.4% | i | i |
| CS(=O)(=O)c1ccc(-c2nn[nH]n2)cc1 | 1.2e-09 | 11% | 0.7% | i | i |
| COc1ccc(/C=C/N(CCc2ccc(OC)c(OC)c2)C(=O)c2ccccn2)cc1 | x | 5%[11.4 µM] | -0.8%[11.5 µM] | x | x |
| CCN1CCN(c2ncc(C(=O)N3CCN(c4ccccc4OC)CC3)c3ccccc23)CC1 | 2e-08 | 12% | 0.2% | i | i |
| CNC(=O)[C@H](C)/C=C(\c1cccnc1)C(NC(=O)OCc1ccccc1)c1ccc(C(=O)OC)cc1 (stereo partly drawn) | x | 1% | -1.3% | x | x |
| O=C(OCc1cc(-c2ccccc2)no1)c1ccc2ccccc2n1 | 2.4e-08 | 21% | 2.6% | i | i |
| CCOc1ccccc1C(=O)Nc1ccccc1C(N)=O | 3.6e-08 | u | 0.7% | i | i |
| CC(=O)c1nnn(-c2nc(N3CCCC3)nc(N(c3ccccc3)c3ccccc3)n2)c1C | 1e-09 | 20%[11.4 µM] | 0.0% | i | i |
| Cc1noc(C)c1S(=O)(=O)N1CCC(C(=O)Nc2ccc(OC(F)(F)F)cc2)CC1 | 1e-09 | 11% | -1.1% | i | i |
| CCOc1ccc(-c2nnc(N(CC)C(=O)C3CCC3)s2)cc1 | 5.8e-09 | -2% | 0.6% | i | i |
| CCOC(=O)c1c(C)[nH]c(C)c1C(=O)COC(=O)CNC(=O)c1ccc(OCC)cc1 | 4.1e-09 | 8% | 0.6% | i | i |
| N#Cc1c(N)sc2c1CCN(C(=O)OCc1ccccc1)C2 | 3.6e-08 | 3% | 1.5% | i | i |
| COC(=O)[C@@]1(Cc2ccc(F)cc2)[C@H]2c3cc(C(=O)N4CCCC4)n(CCc4c[nH]c5ccccc45)c3C[C@H]2CN1C(=O)c1ccccc1 | x | 5% | 1.1% | x | x |
| CC(C)CCNc1ncnc2[nH]ncc12 | 1.6e-08 | 6%[11.4 µM] | 4.1%[11.5 µM] | i | i |
| Cc1nn(C)cc1CN(C)C(=O)c1sc2cccc(Cl)c2c1Cl | x | u | -3.1% | x | x |
| CCCCNc1nc2c(c(=O)[nH]c(=O)n2C)n1CCOc1ccccc1 | 3.9e-08 | -1% | -1.8% | i | i |
| Nc1nc2n(n1)C(c1c(F)cccc1Cl)CC(c1ccc(F)cc1)N2 (stereo not drawn) | x | 5% | -5.2% | x | x |

(more compounds)
| mol | A647 fluor | TSHR agonist | AID923 | Resorufin autofl | A488 fluor |
| --- | --- | --- | --- | --- | --- |
| Cc1cc(C)cc(OCC(=O)Nc2cccc(-c3nnc(-c4ccco4)o3)c2)c1 | 1e-09 | u | 0.8% | i | i |
| CC1=CCC2(CO)COC(c3ccccc3O)C1C2 (stereo not drawn) | x | u | 1.1% | x | x |
| CCOC(=O)C1=C(C)NC(=O)NC1c1c(C)nn(-c2ccccc2)c1Cl (stereo not drawn) | 7.9e-09 | 7% | 0.7% | i | i |
| CCOC(=O)C1=C(NC(=O)c2ccc(Br)o2)Nc2ccccc2N=C1 | 2e-08 | 10% | -0.7% | i | i |
| COc1ccc(-c2cc(C(F)(F)F)n3nc(C)cc3n2)cc1 | x | -8% | 11% | x | x |
| Cc1ccc(C(=O)CSc2nnc(CNc3ccc(C)cc3C)o2)cc1 | 2.6e-08 | 25% | 0.8% | i | i |
| CCOC(=O)CNS(=O)(=O)c1cc(-c2nn(C)c(=O)c3ccccc23)ccc1C | 1e-09 | x | x | i | i |
| N=C(CC(=O)Nc1ccccn1)c1ccccc1 | 3.6e-08 | -2%[11.4 µM] | -1.8%[11.5 µM] | i | i |
| CC(C)CO/N=C1/C[C@@H](O)[C@@H](O)[C@@H]2[C@@H]3C(=O)N(Cc4ccc5c(c4)OCO5)C(=O)[C@H]3CC[C@@H]12 | x | -3%[11.4 µM] | 4.3%[11.5 µM] | x | x |
| COc1ccc(N2CCN(Cc3cc(=O)oc4ccc5ccccc5c34)CC2)cc1 | 1e-09 | 5% | 1.7% | i | i |
| CCOC(=O)c1cc(C#N)c(SCc2ccc(C#N)cc2)nc1C | 1e-09 | u | 1.8% | i | i |
| C=CC[C@@H]1C=C[C@@H](O/N=C\[C@@H](NS(=O)(=O)c2ccc(C)cc2)[C@H](C)/C=C\CC(=O)OC)[C@@H](CO)O1 | x | -3%[11.4 µM] | -5.6%[11.5 µM] | x | x |
| COC(=O)C(C)NC(=O)C1CCCN1S(=O)(=O)c1cc(C)c(Cl)cc1C (stereo not drawn) | x | 7% | 6.9% | x | x |
| Cc1cccc(NC(=O)C2CCN(S(=O)(=O)c3cccc4cccnc34)CC2)n1 | x | 10% | 7.9% | x | x |
| CCOC(=O)COc1ccc2c(c1)C(=O)CC(C)(c1cccnc1)O2 (stereo not drawn) | 1e-08 | 2% | 18% | i | i |
| C=CCNC(=O)CC(C)C(CCCCC)C(=O)O (stereo not drawn) | 2.7e-09 | 2% | 1.0% | i | i |
| O=C(Nc1cccc(F)c1)N1CC[C@@]2(CCCN(S(=O)(=O)c3ccccc3)C2)C1 | 2.9e-08 | u | 0.2% | i | i |

Full records from above.
Results for `C=CCNC(=O)CC(C)C(CCCCC)C(=O)O` (stereo not drawn) : A647 fluor: 2.7e-09; TSHR agonist: 2%; AID923: 1.0%; Resorufin autofl: i; A488 fluor: i
Results for `Cc1ccc(C(=O)CSc2nnc(CNc3ccc(C)cc3C)o2)cc1` : A647 fluor: 2.6e-08; TSHR agonist: 25%; AID923: 0.8%; Resorufin autofl: i; A488 fluor: i

This is a subset; the hit share may differ from the screen's.
